# Screening results deposited in PubChem BioAssay by several laboratories.
# Vif A3G – HIV-1 Vif–A3G interaction blockers – biochemical, TR-FRET, GST-Vif 1-94, biotin-A3G peptide, dose response retest, primary screen (AID 1117319); TR-FRET GST-Vif / biotin-A3G peptide binding; higher % means a stronger effect; test concentration not given here; strong numbers were not always called active; inhibition, %; hits with a dose series show IC50 in µM; 260,000 compounds, 0.57% hits;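 active = above the screen mean plus three standard deviations and confirmed in dose response; inconclusive = results disagree or hit not tested in dose response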;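 note: Vif residues 1-94 fused to GST binding biotinylated APOBEC3G peptide 110-148; 0% = full assay without inhibitor and 100% = GST in place of GST-Vif; retest series ran down from 100 µM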
# MLL AF4-AF9 inh – MLL-AF4/AF9 protein interaction inhibition | AID 651704 | AlphaScreen, biotin-AF4 peptide binding to FLAG-AF9 | inhibition, % at 10 µM | P42568 | 350,000 compounds, 0.47% hits;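 active = every replicate reaching a set inhibition limit, whatever the replicate mean, cut at about 25% in these data; inconclusive = mean inhibition reaches that limit but some replicates miss it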;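 note: 0% = plate neutral control median and 100% = total signal loss; the record names both 10 and 1 µM as test concentration; the first replicate is given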
# E coli growth – E. coli growth inhibition | Escherichia coli growth, OD600, 23 h; hits give low values | OD600 absorbance (no concentration beside the values) | 330,000 compounds, 0.21% hits;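 active = OD600 absorbance below the run mean of sample wells minus 3.6 SD, in any replicate, cut at about 0.56 in these data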;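 note: stock transfer was 300 nL into about 60 µL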
# ALR inh – blocks human ALR sulfhydryl oxidase activity. 290,000 compounds, 3.8% hits. inhibition, % (test concentration not listed). purified ALR, DTT oxidation, H2O2 HRP-luminol luminescence;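 active = mean and each replicate at 75% or more; inconclusive = only one of the two met; inactive = neither met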;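 note: stock transfer was 7.5 nL into about 7.5 µL; 0% = neutral wells and 100% = wells with inactivated enzyme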
# Target sequence (P55789 whole entry, looked up): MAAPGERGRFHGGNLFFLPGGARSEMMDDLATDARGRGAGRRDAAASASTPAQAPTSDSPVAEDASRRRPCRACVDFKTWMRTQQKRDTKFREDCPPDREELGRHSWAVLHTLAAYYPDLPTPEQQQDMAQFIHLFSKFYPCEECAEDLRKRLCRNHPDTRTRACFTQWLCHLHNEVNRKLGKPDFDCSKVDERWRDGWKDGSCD
# rRNA inh HTS – inhibits bacterial ribosomal RNA function over humanized ribosomes | E. coli WT GFP vs humanized-ribosome RFP mutants, fluorescence, 24 h; hits give low values; DMSO median 0, no signal -100 | GFP signal change (wild-type ribosome), % (test concentration not listed) | 350,000 compounds, 1.6% hits;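 active = significant combined selectivity score with lowered wild-type GFP, culture density cut under 30%, mutant RFP and density less affected; inactive = any of these conditions unmet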; note: one replicate is shown; some compounds called inactive have numbers as strong as hits
# FGF22 binding – binders of recombinant human FGF22 by thermal shift; Q9HCT0; SYPRO orange fluorescence; percent of sucrose octasulfate shift, DMSO zero; calls only at 9.99 µM; 340,000 compounds, 1.5% hits; AID 651658;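 active = melting point raised past a set limit in the mean and every replicate; inconclusive = no clear call; three in four hits are not shown here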
# Target sequence (Q9HCT0 whole entry, looked up): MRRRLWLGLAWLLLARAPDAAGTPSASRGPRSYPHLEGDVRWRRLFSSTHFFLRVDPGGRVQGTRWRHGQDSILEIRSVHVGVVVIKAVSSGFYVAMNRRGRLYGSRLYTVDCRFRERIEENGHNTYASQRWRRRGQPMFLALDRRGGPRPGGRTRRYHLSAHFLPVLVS
# HNF4A DNA FP – change in binding of human HNF4 alpha to DNA | P41235 | HNF4a-FITC DNA binding, fluorescence polarization, 1 h | activity change, % at 10 µM | 360,000 compounds, 0.3% hits; in the data active = activity change above about 30%, passing the limit was not always enough;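 note: controls were the assay level and a saturating level of protein; the project sought stronger binding though the title names inhibitors; some compounds called inactive have numbers as strong as hits; positive values seem to mean higher polarization but the record does not say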
# Target sequence (P41235 whole entry, looked up): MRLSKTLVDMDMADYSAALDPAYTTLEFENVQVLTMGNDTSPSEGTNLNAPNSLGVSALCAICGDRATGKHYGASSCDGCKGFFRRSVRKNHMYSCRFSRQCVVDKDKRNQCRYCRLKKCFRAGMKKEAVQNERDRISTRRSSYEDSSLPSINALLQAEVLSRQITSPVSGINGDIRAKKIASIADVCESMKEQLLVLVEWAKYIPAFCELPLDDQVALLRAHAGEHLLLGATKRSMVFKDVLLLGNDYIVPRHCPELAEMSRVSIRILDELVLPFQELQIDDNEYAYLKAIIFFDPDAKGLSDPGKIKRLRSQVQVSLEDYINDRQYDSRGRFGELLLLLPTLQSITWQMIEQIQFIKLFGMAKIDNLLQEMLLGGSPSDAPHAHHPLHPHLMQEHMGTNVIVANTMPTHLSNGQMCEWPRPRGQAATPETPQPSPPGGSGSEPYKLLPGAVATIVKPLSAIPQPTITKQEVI
# rRNA inh HTS OD600 – further read-out of rRNA inh HTS, marked with its call; OD600 change, %; measured here: OD600 growth;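 optical density of the mix in the first replicate; 0 = DMSO median and -100 = no signal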
# rRNA inh HTS RFP – second read-out of rRNA inh HTS, no call of its own (marks repeat the call); RFP signal change, %; measured here: RFP humanized mutant strains;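 first replicate; 0 = DMSO median and -100 = no signal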
# Active calls of the source: *; i = inactive; ? = inconclusive; · = no result given; & = joins results of further samples.
SMILES,Vif A3G,MLL AF4-AF9 inh,E coli growth,ALR inh,rRNA inh HTS,rRNA inh HTS OD600,rRNA inh HTS RFP,FGF22 binding,HNF4A DNA FP
CC(C)NCC(O)COCCOc1ccc(Cl)cc1 (centres undefined),-3%,-2.1,0.64,-3,5,4,-0.3,i,-2.1
CN1C(=O)N(CC(=O)Nc2sccc2C(N)=O)C(=O)C12CCCCC2,12%,-3.8,0.65,20,6,4,-1.0,·,3.3
Cc1c(Br)ccc(NC(=O)COc2ccccc2C(N)=O)c1C,·,1.8,0.67,4,10,8,0.4,i,-0.8
O=C1C2C3CCCC3=C3CCCC3C2C(=O)N1c1ccc(F)cc1 (centres undefined),?,·,0.76,0,·,·,·,·,-1.8
CCOC(=O)C1=C(COC(=O)CNC(=O)c2cccc(C)c2)NC(=O)NC1C (centres undefined),1%,-1.9,0.68,1,2,7,-1.6,i,0.7
C[C@@H]1CN([C@@H](C)CO)C(=O)c2cccc(NS(=O)(=O)c3ccc(F)cc3)c2O[C@H]1CN(C)C(=O)NC1CCCCC1,·,-2.9,·,-2,-2&-3,5&-1,1.9&-0.6,i,-1.0
O=C(CCN1C(=O)/C(=C/c2ccc(Cl)cc2)SC1=S)Nc1cccnc1,·,-6.1,0.73,3,8,8,-1.2,i,-6.1
CCCCn1c(N)c(N(CCOC)C(=O)COC(=O)/C=C/c2ccc(Br)cc2)c(=O)[nH]c1=O,·,-3.1,0.73,-2,1,1,-4.6,i,-3.8
C[C@H]1CN([C@@H](C)CO)C(=O)c2cc(C#CC3(O)CCCC3)cnc2O[C@@H]1CN(C)C,·,-3.8,·,·,9,7,-1.1,i,·
CCOC(=O)c1[nH]c(C)c(C(=O)N(CC)CC)c1C,4%,-0.5,0.69,-6,3,10,-1.5,i,0.6
C[C@@H]1CN([C@@H](C)CO)S(=O)(=O)c2ccc(/C=C/c3ccccc3)cc2O[C@@H]1CN(C)C(=O)CN1CCOCC1,·,4.3,·,·,-1,-2,-0.7,i,·
O=C(COC(=O)Cc1c(Cl)cccc1Cl)Nc1ccccc1-c1ccccc1,-3%,·,0.67,-6,·,·,·,·,-2.1
COc1ccccc1Oc1ccc(S(=O)(=O)N2CCCC2)cc1,-2%,-7.5,0.64,-2,-23,-34,1.5,i,0.1
CN(C(=O)c1cccc(NC(=O)Cc2cccc(NC(=O)C3CCCN(C(=O)c4ccccc4)C3)c2)c1)C1CC1 (centres undefined),-1%,0.9,0.7,·,-10,-6,1.5,i,3.7
CCn1c(SCC(=O)N2CCN(c3ccc(Cl)cc3)CC2)nc2ccccc2c1=O,-11%,·,0.7,·,·,·,·,·,-4.0
Nc1[nH]c(C(=O)c2ccccc2)c(-c2ccc(F)cc2)c1C(=O)NCCc1c[nH]c2ccccc12,·,2.2,·,·,-29,-59,8.2,i,-2.1
COc1ccccc1-n1cnc(N)c1C(=O)c1ccccc1,-1%,·,0.75,-1,·,·,·,·,-0.5
Cc1c(NC(=O)COC(=O)c2ccc(S(=O)(=O)N3CCOCC3)cc2)c(=O)n(-c2ccccc2)n1C,?,-4.2,0.71,1,22,19,1.2,i,3.5
COc1ccc2c(c1)OC[C@H]1[C@H]2N2C(=O)CN(Cc3ccco3)C(=O)[C@@]2(C)[C@H]1c1ccccc1,·,7.4,·,-2,6,-1,4.8,i,1.5
CCN(CCCNC(=O)C1CCN(S(=O)(=O)c2cnc[nH]2)CC1)c1cccc(C)c1,17%,·,0.69,99*,·,·,·,·,-1.1
C[C@H](CO)N1C[C@H](C)[C@@H](CN(C)C(=O)CN(C)C)Oc2ncc(C3=CCCC3)cc2C1=O,·,-1.3,·,·,3,-1,1.1,i,·
CCNC(=S)N(CCN(CC)CC)Cc1cc2cc3c(cc2[nH]c1=O)OCO3,·,0.5,0.69,·,13,15,2.6,i,7.0
O=S(=O)(NC1CC1)c1ccc(S(=O)(=O)N2CCCC3(CCCCC3)C2)cc1,-1%,·,0.7,-3,·,·,·,·,0.0
CN(C)CC#Cc1ccc([C@H]2[C@@H](CO)N3CCCCN(C(=O)Nc4cc(F)ccc4F)C[C@H]23)cc1,·,13,·,·,1,-7,-0.7,i,·

# For reference, part of the list above:
SMILES,Vif A3G,MLL AF4-AF9 inh,E coli growth,ALR inh,rRNA inh HTS,rRNA inh HTS OD600,rRNA inh HTS RFP,FGF22 binding,HNF4A DNA FP
COc1ccccc1Oc1ccc(S(=O)(=O)N2CCCC2)cc1,-2%,-7.5,0.64,-2,-23,-34,1.5,i,0.1
CN(C(=O)c1cccc(NC(=O)Cc2cccc(NC(=O)C3CCCN(C(=O)c4ccccc4)C3)c2)c1)C1CC1 (centres undefined),-1%,0.9,0.7,·,-10,-6,1.5,i,3.7
CCn1c(SCC(=O)N2CCN(c3ccc(Cl)cc3)CC2)nc2ccccc2c1=O,-11%,·,0.7,·,·,·,·,·,-4.0

# Going on with the list.
SMILES,Vif A3G,MLL AF4-AF9 inh,E coli growth,ALR inh,rRNA inh HTS,rRNA inh HTS OD600,rRNA inh HTS RFP,FGF22 binding,HNF4A DNA FP
COc1ccc(Cl)cc1NC(=O)CN(C)C(=O)c1ccc(C)s1,-6%,0.0,0.67,·,-24,-27,-2.8,i,3.8
CCOC(=O)N1CCN(C(=O)c2ccc3c(c2)N(C)C(=O)/C(=C\c2ccc(OCC)c(OC)c2)S3)CC1,·,19,0.58,-15,-7,-7,14,i,-0.1
CNC(=O)C[C@H]1CC[C@@H]2[C@H](COc3ccc(NC(=O)c4ccccc4Cl)cc3C(=O)N2C)O1,·,-0.6,·,·,0,4,0.2,i,·
COc1ccccc1S(=O)(=O)N(C)C[C@H]1OCc2ccccc2-c2c(n(C)c3ccccc23)C(=O)N([C@H](C)CO)C[C@@H]1C,·,4.8,·,·,0,2,-2.2,i,·
Cc1ccc(S(=O)(=O)N[C@@H]2CC[C@H](CC(=O)NC3CCCCC3)O[C@H]2CO)cc1,·,-2.2,·,·,-4,0,-1.2,i,·
O=C1N/C(=C\c2ccc(N3CCOCC3)c(F)c2)C(=O)N1Cc1ccccc1,-9%,·,0.67,-12,·,·,·,·,1.3
CC(C)C(C(=O)Nc1ccc2c(c1)OCO2)N1C(=O)c2ccccc2C1=O (centres undefined),11%,·,0.67,-14,·,·,·,·,0.0
COc1ccc(-c2c(C#Cc3ccsc3)c3ccccc3n2C)cc1,·,-4.9,·,-1,-6,-7,5.0,i,2.5
CCOC(=O)c1ccc(NC(=O)COC(=O)Cc2csc(-c3ccccc3)n2)cc1,·,-0.1,0.65,-15,-15,-9,6.4,i,-0.9
CCOC(=O)c1sc2ncnc(N3CCN(C(=O)OCC)CC3)c2c1C,73%,·,0.75,-52,·,·,·,·,0.3
CCOc1ccc(NC(=O)CN(C)C(=O)c2cn(-c3ccccc3)nc2-c2cccs2)cc1OCC,·,2.4,0.69,-3,-3,-12,3.3,i,1.5
CN1c2ccc(-c3cccc(F)c3)cc2[C@@H]2[C@@H](CCN2C(=O)C2CC2)[C@@H]1CO,·,-43,·,·,-47,-68,-2.3,i,·
Cc1ccc(S(=O)(=O)N(C)C)cc1NC(=O)C(C)OC(=O)/C=C/c1cccs1 (centres undefined),·,-12,0.66,-8,-2,-3,-1.5,i,-0.1
CN(C)S(=O)(=O)c1ccc(C(=O)NCCSc2ccccc2)cc1,0%,·,0.67,-15,·,·,·,·,0.5
COc1ccc2[nH]cc(CCNS(=O)(=O)c3ccc(C)cc3)c2c1,3%,-0.5,0.7,40,-14,-11,3.6,i,-1.3
C[C@H](CO)N1C[C@H](C)[C@H](CN(C)S(=O)(=O)c2ccc(C#N)cc2)Oc2ncc(Br)cc2C1=O,·,0.8,·,·,-2,6,-2.9,i,·
C[C@H]1CN([C@@H](C)CO)C(=O)c2cc(C#CC3(O)CCCC3)cnc2O[C@@H]1CN(C)C(=O)Nc1ccc2c(c1)OCO2,·,-0.7,·,·,0,1,-3.1,i,·
CC1(C(=O)NC2CCN(Cc3ccccc3)CC2)CCN1Cc1cc2ccccc2o1 (centres undefined),·,4.0,·,·,4,1,0.9,i,0.7
O=C(CCN1C(=O)c2ccccc2C1=O)NNC(=O)c1ccc(Cl)cc1Cl,2%,·,0.68,2,·,·,·,·,-1.4
C[C@@H]1CN([C@@H](C)CO)C(=O)c2cc(C#Cc3ccccc3)cnc2O[C@@H]1CN(C)C(=O)CCN1CCCCC1,·,15,·,·,4,3,3.0,i,·
CCCCCCSc1ccc([C@@H]2[C@@H]3C(=O)N(C)C(=O)[C@@H]3[C@]3(C(=O)OC)CCCCN23)cc1,·,-0.5,·,8,8,6,1.2,i,2.3
CC(=O)c1cccc(S(=O)(=O)N2CCC(C(=O)Oc3ccc(-c4nnco4)cc3)CC2)c1,-5%,-3.2,0.72,18,2,7,0.5,i,0.4
COC(=O)C1=C(C)N(CCCC(=O)O)C(=O)NC1c1ccccc1OS(=O)(=O)c1ccc([N+](=O)[O-])cc1 (centres undefined),·,0.3,0.66,-7,-2,-10,5.1,i,-2.6
COC(=O)Cc1nnn2c1[C@@H](C)[C@@H](c1ccccc1Br)OC[C@@H]2c1ccccc1,·,2.3,·,·,-14,-58,13,·,·
CO[C@H]1CN(C)C(=O)c2ccc(NC(=O)CC(F)(F)F)cc2OC[C@@H](C)N(C(=O)C2CC2)C[C@@H]1C,·,-2.1,·,·,-1,9,2.0,i,·
Cc1nc(SCC(=O)Nc2ccc(C)c(F)c2)c2oc3ccccc3c2n1,-24%,·,0.74,·,·,·,·,·,-0.7
Cc1ccc(C)c2[nH]c(=O)c(CCNC(=O)c3cc4ccccc4o3)cc12,25%,-1.2,0.74,15,6,7,0.2,i,4.4
CCC(CC)C(=O)N(C)c1c(C)nc2c(OCCC3CCCCC3)cccn12,·,4.2,·,·,-44,-57,-6.6,i,1.0
CCOc1ccc(-c2nnc3sc(COc4ccccc4)nn23)cc1,1%,·,0.69,-1,·,·,·,·,-3.2
COc1ccc(-c2oc3ccc(-c4cc(OC)c(OC)c(OC)c4)cc3c2C(=O)c2ccc(OC)nc2)cc1,·,0.6,·,2,12,12,-0.8,i,2.8
COc1ccc(CN(C)C[C@H]2OCCCC[C@@H](C)Oc3ccc(NC(=O)Nc4c(C)noc4C)cc3C(=O)N([C@@H](C)CO)C[C@H]2C)cc1,·,0.8,·,·,4,4,1.6,i,·
CS(=O)(=O)N(CC(=O)N1CCOCC1)c1cccc(Cl)c1,-1%,0.4,·,·,4,6,-11,i,5.0
CCN1CCN(C(=O)/C=C/c2ccccc2[N+](=O)[O-])CC1,·,-2.2,·,-4,1,1,0.0,i,0.4
O=C(O)c1cc2nc3c(c(C(F)(F)F)n2n1)CCc1ccccc1-3,7%,·,0.78,-12,·,·,·,·,-5.1
Nc1nc(Nc2ccccc2F)nc(N2CCCC2)c1[N+](=O)[O-],1%,6.3,0.68,5,-32,-60,1.8,i,-2.4
COc1ccc(CCNC(=O)C(C)OC(=O)c2cccs2)cc1OC (centres undefined),·,0.2,0.66,2,4,11,0.1,i,0.3
COC(=O)c1ccc2c(c1C(=O)OC)CN(S(=O)(=O)C(C)(C)C)[C@H]2CCO,-10%,1.9,0.68,·,-1,3,1.4,i,-2.2
COc1ccccc1/C=N/Nc1nncc2ccccc12,14%,3.4,·,10,2,4,1.2,i,0.5
C[C@H]1CN(S(=O)(=O)C(C)(C)C)[C@H](CCO)/C1=C\c1ccccc1,1%,-0.3,0.65,·,-9,-6,-2.2,i,-1.6
COc1ccc(C(=O)COC(=O)CNC(=O)c2ccccc2)cc1F,-7%,-1.2,0.72,-14,0,8,-1.1,i,4.7

# This is a subset; count on the stated rates, not on these rows.
